Rce1 inhib: yeast Rce1p protease inhibitors, primary screen, biochemical, fluorescence, cell-free homogeneous; 290,000 tested, 0.27% active; yeast membranes, quenched prenylated peptide cleavage fluorescence; CAAX prenyl protease 2 (Saccharomyces cerevisiae (strain ATCC 204508 / S288c)), Q03530; calls only;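 active = fall in fluorescence gain of 50% or more versus controls, with final raw signal at or below 3038400; inconclusive = same 50% fall but final raw signal above 3038400; inactive = fall in fluorescence gain under 50%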;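 note: plate controls were neutral control wells for no effect and wells lacking membranes for full effect; tested at 10 µM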
Target sequence (Q03530 whole entry, looked up): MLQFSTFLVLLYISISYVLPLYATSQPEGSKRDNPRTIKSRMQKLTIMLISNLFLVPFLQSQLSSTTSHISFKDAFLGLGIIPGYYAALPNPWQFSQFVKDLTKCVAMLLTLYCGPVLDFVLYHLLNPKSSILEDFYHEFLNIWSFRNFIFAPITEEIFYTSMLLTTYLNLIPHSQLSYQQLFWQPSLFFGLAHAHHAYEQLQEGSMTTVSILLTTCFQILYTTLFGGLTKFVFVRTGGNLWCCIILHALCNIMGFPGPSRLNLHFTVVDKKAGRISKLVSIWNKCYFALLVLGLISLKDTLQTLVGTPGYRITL
UUG fidelity: modulators of yeast start codon fidelity, primary screen, whole organism, S. cerevisiae, single point, plate reader. S. cerevisiae UUG-firefly luciferase reporter, luminescence/redox ratio. activity score, % at 18.7 µM. 350,000 tested, 0.13% active;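 active = replicate mean at a twofold rise or more, about +100% in these data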;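 note: firefly luciferase made from a UUG start codon reports start codon fidelity; reporter light over untreated wells divided by growth signal over untreated wells; some hits fall short of that in this replicate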
PABP FP inh: PABP poly(A) RNA binding inhibitors, primary screen, biochemical, fluorescence polarization, uHTS; 290,000 tested, 1% active; Polyadenylate-binding protein 1 (Homo sapiens), P11940; inhibition, % at 35 µM;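 active = 50% or more with normal probe brightness, or confirmed in later tests; inconclusive = above 50% with abnormal brightness, or retests that disagree; inactive = below 50% or failed in later tests; about a fifth of its hits are not listed in these tables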;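 note: calls also rest on retests at 20 µM and on dose response follow-up; controls were probe without protein and protein plus probe with vehicle; some compounds called inactive have numbers as strong as hits; many hits fall short of the cut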
Target sequence (P11940 whole entry, looked up): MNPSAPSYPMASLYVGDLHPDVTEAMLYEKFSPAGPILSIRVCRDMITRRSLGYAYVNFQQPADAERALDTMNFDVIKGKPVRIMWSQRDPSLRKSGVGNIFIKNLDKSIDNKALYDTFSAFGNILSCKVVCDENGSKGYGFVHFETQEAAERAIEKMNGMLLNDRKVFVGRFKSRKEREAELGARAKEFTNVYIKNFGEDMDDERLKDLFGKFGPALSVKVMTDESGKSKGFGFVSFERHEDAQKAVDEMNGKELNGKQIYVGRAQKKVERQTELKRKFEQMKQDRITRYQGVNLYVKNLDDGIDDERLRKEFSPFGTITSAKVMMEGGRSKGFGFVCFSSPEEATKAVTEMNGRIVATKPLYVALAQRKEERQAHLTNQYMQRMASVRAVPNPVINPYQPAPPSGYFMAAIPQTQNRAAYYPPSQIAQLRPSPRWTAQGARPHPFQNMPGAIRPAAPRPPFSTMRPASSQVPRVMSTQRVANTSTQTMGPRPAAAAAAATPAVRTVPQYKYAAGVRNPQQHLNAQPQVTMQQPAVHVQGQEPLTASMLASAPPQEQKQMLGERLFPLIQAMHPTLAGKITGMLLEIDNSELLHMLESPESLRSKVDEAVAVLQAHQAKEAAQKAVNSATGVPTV
MT1-MMP act inh: blockers of MT1-MMP proenzyme processing, primary screen, HT1080 RFP-PRO-GFP cells, GFP/RFP fluorescence. GFP/RFP ratio fluorescence, overnight; percent of plate control window, DMSO zero. GFP/RFP ratio change, % at 20 µM. AID 651647, 2012. Matrix metalloproteinase-14 (Homo sapiens), P50281. 360,000 tested, 0.061% active;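 active = GFP/RFP ratio change of at least 30% with cell ATP level not reduced by more than half and red fluorescence within 50% of control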; note: strong numbers were not always called active
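Test system: HT1080 cells expressing an RFP-PRO-GFP fluorescent reporter construct / Compound dosing: single-point 20 µM compound, 1% DMSO / Schedule: cells overnight before dosing, compound overnight, 37 °C, 5% CO2 / Evaluation: GFP/RFP fluorescence ratio / Control set: DMSO and RFP-L50D-GFP cell wells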
eIF4H inh: human eIF4H binding inhibitors, primary screen, translation initiation inhibitor project, biochemical, uHTS, fluorescence polarization | Eukaryotic translation initiation factor 4H (Homo sapiens), Q15056 | eIF4H fluorescence polarization binding assay | inhibition, % at 35 µM | 290,000 tested, 0.94% active;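 active = 50% or more with normal probe brightness, or confirmed in later tests; inconclusive = above 50% with abnormal brightness, or retests that disagree; inactive = below 50% or failed in later tests; about a fifth of its hits are not listed in these tables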;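 note: calls also rest on retests at 20 µM and on dose response follow-up; 0% = protein and probe with vehicle and 100% = probe without protein; strong numbers were not always called active; many hits fall short of the cut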
Env fusion inh: inhibitors of HIV-1 Env-driven cell-cell fusion, primary screen, HeLa-JRFL effector, CEM21 target cells, luciferase | 360,000 tested, 1.1% active | inhibition, % at 12.3 µM | AID 651610, 2012;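 active = mean replicate inhibition score of at least 50 and every replicate individually at or above 50; inconclusive = only one of the two criteria met; inactive = mean below 50 and not all replicates reaching 50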;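 note: 0% = plate neutral controls and 100% = maraviroc near 300 nM; one replicate is shown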
CSC inhib: cancer stem cell viability inhibitors, primary screen, luminescence; cancer stem cell-like cells viability; inhibition, % at 7.5 µM; 300,000 tested, 1.1% active; AID 2717, 2010;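 active = mean at 75% or more and at least half the replicates too; inconclusive = mean and replicates disagree; tested in HMLE shEcad cells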;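 note: 0% = median of negative and 100% = median of positive control wells; the first replicate is given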
eIF4H inh retest: further read-out of eIF4H inh, marked with its call; inhibition, %; compound at 20 µM; confirmation average;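 mean of two retest wells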
PABP FP inh retest: also measured in PABP FP inh; calls as there; inhibition, %; compound at 20 µM; confirmation repeats;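 mean of two retest wells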
MT1-MMP act inh RFP: further read-out of MT1-MMP act inh, marked with its call; RFP signal change, %; measured here: RFP expression control read;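 0 = vehicle wells; hits needed this value within 50% of zero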
Numbers without * were called inactive; i = inactive; ? = inconclusive; / = no result given. These rows are one share of the data (hit frequency here may not be typical).

SMILES | Rce1 inhib | UUG fidelity | PABP FP inh | MT1-MMP act inh | MT1-MMP act inh RFP | eIF4H inh | Env fusion inh | CSC inhib | others
CCNC(=O)N1CCNC(=O)C1CC(=O)OC (centres undefined) | i | / | 60 | 1 | -1 | -7 | -41 | 3 | eIF4H inh retest=4;PABP FP inh retest=5
Nc1cccc(S(=O)(=O)Nc2ccccc2)c1 | i | / | 0 | 1 | 0 | -10 | 10 | -4
O=C(O)C1(c2ccccc2)CCC(Nc2ccccc2)C1 (centres undefined) | i | -2 | 1 | -6 | 4 | -6 | 0 | -3
CCN(CC)c1ncnc2c1cnn2Cc1ccc(Cl)cc1 | i | / | -3 | 4 | -5 | -4 | 28 | -3
O=C(CNS(=O)(=O)c1ccccc1)NNC(=O)C(Cl)Cl | i | -14 | -2 | -7 | -3 | -2 | -3 | /
COc1ccc(-c2nc(NC(=O)Cn3c(=O)oc4ccccc43)sc2C)cc1 | i | -9 | 34 | -3 | -7 | 7 | -4 | -22
Cc1ccc(C)c(OCc2nc(-c3cccnc3)no2)c1 | / | 3 | 1 | -1 | 0 | -3 | / | /
Cc1ccc(C)c(NC(=S)/C(=C(\[O-])c2ccc(OC(F)F)cc2)[n+]2ccccc2)c1 | i | 0 | -4 | 0 | 5 | -10 | -39 | -7
O=C(COC(=O)C1CCC1)c1c[nH]c2ccccc12 | i | -17 | / | 2 | 3 | / | 1 | -14
O=c1cc(N2CCOCC2)[nH]c(=O)n1-c1ccc(Cl)cc1 | i | -8 | -4 | -1 | 8 | -14 | -42 | -15
O=C(Nc1ccc(F)cc1)c1ccc2snnc2c1 | i | -9 | -7 | 1 | -3 | 1 | -22 | -4
O=C(CNC(=O)c1ccccc1Cl)OC1CCOC1=O (centres undefined) | i | -20 | ? | -3 | 1 | -5 | -2 | -4
COc1ccc(C(C)(C)C)cc1NC(=O)c1[nH]c(C)c(C(C)=O)c1C | i | -6 | 0 | -2 | -1 | -4 | -3 | 23
CC(=O)Nc1ccc(NC(=O)CS(=O)(=O)c2cn(CC(=O)N3CCCCC3)c3ccccc23)cc1 | i | 1 | -1 | -1 | 4 | 1 | 18 | 1
CCCCn1c(CN2CCN(c3cccc(Cl)c3)CC2)nc2c1c(=O)n(C)c(=O)n2C | i | 11 | 10 | -2 | -13 | 9 | 15 | 5
O=C(NCCS(=O)(=O)N1CCN(c2ccccc2)CC1)C1CC(=O)N(c2ccc(F)cc2)C1 (centres undefined) | i | -14 | -1 | 7 | -1 | 0 | 6 | 0
CCn1c2ccccc2c2cnc(N=CN(C)C)c(C#N)c21 | i | -24 | 0 | -11 | -7 | -2 | / | -7
COc1ccc(NC(=O)N2CCOCC2)cc1OC | i | -18 | 6 | 0 | 3 | -5 | -55 | -10
CCOc1cc(C(=O)NC(C)CCc2ccccc2)cc(OCC)c1OCC (centres undefined) | i | 6 | -9 | 0 | 2 | -16 | 8 | -7
C=Cc1ccc2c(c1)OCCOCCOCCOCCOCCO2 | i | -6 | 12 | -2 | 3 | -8 | -6 | 1
CCCS(=O)(=O)NC(=O)C1(C)CCN(C(=O)c2cc(C)nn2C(C)(C)C)C1 (centres undefined) | / | 0 | / | 2 | 2 | / | 8 | /
Cc1ccc(C)c(Cn2c(C(=O)OC(C)C)cc3c2ccn3C)c1 | i | -10 | 3 | -8 | -3 | 2 | 30 | 20
Cc1c(CNC(=O)c2nn3c(c2Cl)NC(c2ccccc2)CC3C(F)(F)F)cnn1C (centres undefined) | i | -27 | 9 | 7 | -10 | -4 | 17 | /
O=C(O)COc1c(-c2ccc(Cl)cc2)oc2ccccc2c1=O | i | / | -2 | -2 | 0 | -1 | 5 | 6
c1ccc(CN2CCOCCOCCOCC2)cc1 | i | / | -12 | 0 | 3 | 2 | -7 | -7
COc1ccc(Cl)cc1S(=O)(=O)Nc1noc2ccccc12 | i | -3 | -3 | -4 | 1 | 3 | 11 | 8
COC(=O)c1ccccc1C(=O)N1CCC(CCC(=O)NC2CC2)CC1 | i | -2 | -10 | -1 | 0 | -2 | 6 | -2
O=C1S/C(=C\c2ccc(N3CCOCC3)o2)C(=O)N1Cc1ccc(F)cc1 | / | -25 | 11 | -216 | 5 | 7 | / | -9
COc1cccc(C(=O)Nc2cc(C(=O)NCc3ccc(C)cc3)ccc2N2CCC3(CC2)CC(c2ccccc2)=NO3)c1 | i | -9 | 3 | 1 | 0 | -1 | -2 | -3
CN1C(=O)[C@H]2[C@@H](/C=C/c3ccccc3)N3C(=O)CN(Cc4ccccn4)C(=O)[C@@]3(C)[C@H]2C1=O | i | -15 | 3 | 0 | 5 | -3 | -7 | -6
COc1cccc(OC)c1C(=O)Nc1cc(Cl)ccc1N1CCOCC1 | i | -4 | -6 | 1 | 2 | -12 | / | 15
Cc1nc(N)c(C#N)c(-c2ccc3c(c2)OCO3)c1C | i | -9 | 2 | 0 | -1 | -16 | 1 | 0
COc1cccc(/C=N/NC(=O)c2[nH]c(C)c(C(=O)N/N=C/c3cccc(OC)c3O)c2C)c1O | i | / | -9 | -5 | -11 | 7 | / | 93*
Cc1cc(C)n2nc(CC(=O)NC3CCCCCCC3)nc2n1 | i | -15 | 12 | -2 | 0 | -10 | / | -5
COC(=O)[C@]1(CC(C)C)N[C@H](c2ccc(-c3ccc(F)cc3)c(OC)c2)[C@@H]2C(=O)N(C)C(=O)[C@@H]21 | i | -10 | / | 2 | -1 | / | -7 | 10
CC(Oc1ccc(Cl)cc1Cl)C(=O)N(C)c1ccccc1 (centres undefined) | i | 8 | 8 | -6 | -5 | -7 | 16 | 0
O=C(CCc1ccc(O)c(O)c1)N/N=C/c1ccc2c(c1)OCO2 | i | -19 | 0 | -1 | -4 | 14 | -1 | 6
COc1ccc(CNC(=O)C2CCCN(S(=O)(=O)c3ccc(-n4cnnn4)cc3)C2)cc1 (centres undefined) | / | -16 | 9 | -1 | -2 | 2 | 1 | -6
C#CCn1c(=NC(=O)c2ccc(Br)s2)sc2cc(NC(C)=O)ccc21 | i | / | 16 | 3 | 2 | -22 | 8 | -10
CCN(CC)c1ccc(/C=N/n2c(C)nc3ccccc3c2=O)cc1 | i | 5 | -6 | 1 | -3 | -18 | -4 | 1
Fc1ccc(-n2cc(CNCCc3ccncc3)c(-c3ccccc3Cl)n2)cc1 | i | -7 | -7 | 2 | 2 | 0 | 20 | -7
COc1ccc(/C=N/N=C/c2ccc(OC)c(O)c2)cc1O | i | -21 | -8 | 9 | 7 | 2 | 0 | -5
CCOc1ccc(NC(=O)CSc2nnc(-c3ccccc3)n2N)cc1 | i | -6 | 1 | 6 | 4 | 9 | / | -22
CC(=O)N1c2ccc(S(=O)(=O)N3CCCCC3)cc2CC1C(=O)NCc1cccc(Cl)c1 (centres undefined) | i | -6 | 10 | -5 | 2 | -11 | -9 | 8
COc1ccc(NC(=O)CN(C)S(=O)(=O)c2ccc3[nH]c(=O)oc3c2)cc1 | i | -5 | -5 | 0 | 3 | 3 | 1 | 3
NC(=O)c1ccccc1NC(=O)CCCN1C(=O)CCC1=O | i | -2 | 19 | -1 | 6 | 6 | / | 4
COc1ccccc1C(=O)N1CCCN(C(=O)c2ccccc2OC)CC1 | i | -2 | -11 | 2 | 9 | 7 | -11 | -11
COc1ccc(-c2ccc(OC)c([C@H]3[C@H]4C=CC[C@@H](C)[C@@H]4C(=O)N3Cc3ccccc3)c2)cc1 | i | -23 | -5 | -6 | -11 | -5 | 35 | 66
CCOC(=O)Cc1nc2ccccc2o1 | i | / | 4 | / | / | 22 | / | -6
CCN(CC)C(=O)Cn1c(=O)n(Cc2ccccc2Cl)c2c1c(=O)n(C)c(=O)n2C | i | -3 | / | -4 | 3 | / | -12 | 12
CCCOC(=O)c1ccc(NC(=O)c2cc(Cl)ccc2OC)cc1 | i | 0 | 14 | 8 | 3 | -5 | 2 | -7
COc1ccccc1CN1CC(C(=O)NCCn2nc(C)cc2C)CCC1=O (centres undefined) | i | -9 | -5 | -10 | 1 | 2 | -4 | -20
Cc1cc(Nc2ccccc2)n(-c2ccccc2)n1 | i | -24 | -3 | 5 | 3 | 1 | / | -11
Cc1nn(Cc2ccccc2)c(Cl)c1C(=O)NCCc1ccc(Cl)cc1 | i | / | -6 | 0 | -5 | -3 | / | 18
Cc1nccn1CC(=O)N/N=C/c1c[nH]c2ccccc12 | i | -30 | -5 | 2 | 0 | 0 | -2 | 4

In the list so far, 7 have fluorine:
SMILES | Rce1 inhib | UUG fidelity | PABP FP inh | MT1-MMP act inh | MT1-MMP act inh RFP | eIF4H inh | Env fusion inh | CSC inhib | others
Cc1ccc(C)c(NC(=S)/C(=C(\[O-])c2ccc(OC(F)F)cc2)[n+]2ccccc2)c1 | i | 0 | -4 | 0 | 5 | -10 | -39 | -7
O=C(Nc1ccc(F)cc1)c1ccc2snnc2c1 | i | -9 | -7 | 1 | -3 | 1 | -22 | -4
O=C(NCCS(=O)(=O)N1CCN(c2ccccc2)CC1)C1CC(=O)N(c2ccc(F)cc2)C1 (centres undefined) | i | -14 | -1 | 7 | -1 | 0 | 6 | 0
Cc1c(CNC(=O)c2nn3c(c2Cl)NC(c2ccccc2)CC3C(F)(F)F)cnn1C (centres undefined) | i | -27 | 9 | 7 | -10 | -4 | 17 | /
O=C1S/C(=C\c2ccc(N3CCOCC3)o2)C(=O)N1Cc1ccc(F)cc1 | / | -25 | 11 | -216 | 5 | 7 | / | -9
COC(=O)[C@]1(CC(C)C)N[C@H](c2ccc(-c3ccc(F)cc3)c(OC)c2)[C@@H]2C(=O)N(C)C(=O)[C@@H]21 | i | -10 | / | 2 | -1 | / | -7 | 10
Fc1ccc(-n2cc(CNCCc3ccncc3)c(-c3ccccc3Cl)n2)cc1 | i | -7 | -7 | 2 | 2 | 0 | 20 | -7
